Assay outcomes deposited in PubChem by Southern Research Institute.
Mtb H37Rv: Mycobacterium tuberculosis H37Rv growth inhibition, cell based, confirmatory dose response (AID 1949); M. tuberculosis H37Rv growth inhibition; most inactive calls were filed without a number and no value below 0 was filed; inhibition, % at 10 µg/mL; hits with a dose series show IC50 in µg/mL; 100,000 compounds, 1.6% hits;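 active means confirmed in a dose series; inconclusive means about 50% or more but not retested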;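 further: bacteria grown 7 days with compound before Alamar blue readout; 0% = untreated bacteria and 100% = reference antibiotic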
* = called active by the depositor; i = inactive; ? = inconclusive. Some of the compounds tested (hit frequency here may not be typical).

SMILES	Mtb H37Rv
S=C(NNC(=S)NC1CCCCC1)NC1CCCCC1	0.9%
COC(=O)CN1CCN(C(c2ccccc2)c2ccccc2)CC1	i
CCN(CC)c1ccc(-n2nc3cc(C)c(NC(=O)c4cccc(OC)c4)cc3n2)cc1	19.3%
COc1ccc(-c2cc(-c3ccccc3)c(C#N)c(S(=O)Cc3ccccc3)n2)cc1 (stereo unspecified)	7.4%
O=C(CSc1nnnn1-c1ccc(O)cc1)Nc1ccc(N2CCOCC2)c(Cl)c1	11.2%
Cc1c(NC(=O)C2CCCCC2C(=O)O)c(=O)n(-c2ccccc2)n1C (stereo unspecified)	i
CC(O)CNC(=O)C12CC3CC(CC(C3)C1)C2 (stereo unspecified)	i
CSc1cccc(NC(=O)c2ccc(Cl)cc2)c1	i
CC(=O)c1sc(Nc2ccc(F)c(Cl)c2)nc1N	i
Cc1ccc(NC(=O)C2C(=O)CN(c3ccccc3)C2=O)cc1C (stereo unspecified)	i
CC1CN(C(=O)c2cccs2)C(C)CN1C(=O)c1cccs1 (stereo unspecified)	i
CCOc1cc(C=O)ccc1OC(=O)c1ccccc1F	i
CC(=O)c1cccc(NC(=O)C2CC(=O)N(Cc3ccccc3)C2)c1 (stereo unspecified)	i
C=C(C)Cn1c(Cc2ccc(OC)c(OC)c2)nc2ccccc21	0.7%
Cc1cc(=O)oc2c(C)c(OCc3cccc(C(F)(F)F)c3)ccc12	i
Cc1c(Cl)cccc1NC(=S)N1CCOCC1	2.1%
Nc1c(C(=O)Nc2ccc(Cl)c(C(F)(F)F)c2)sc2nc(-c3ccncc3)ccc12	i
CCc1ccc(NC(=O)C2CCN(S(=O)(=O)c3ccc(Br)cc3)CC2)cc1	i
CCOc1ccc(NC(=S)NNS(=O)(=O)c2ccc(Cl)cc2)cc1	i
CCOC(=O)c1c(-c2cccs2)csc1NC(=O)c1ccccc1OC(C)=O	i
COc1cc(Cl)c(C)cc1NC(=O)c1ccccc1I	9.6%
Cc1c(F)cccc1NC(=O)c1ccc(Cl)cc1	i
COc1ccc(S(=O)(=O)N2CCN(C(=O)c3ccccc3)CC2)cc1	i
O=C(O)c1cccc(NC(=O)c2cccc(S(=O)(=O)N3CCc4ccccc4C3)c2)c1	i
CCCCC(=O)N1CCCC(C(=O)OCC)C1 (stereo unspecified)	0.6%
SMILES	Mtb H37Rv
COc1ccc(C(=O)CC2(O)C(=O)Nc3c(Br)cc(C)cc32)cc1 (stereo unspecified)	i
O=c1[nH]c(=S)[nH]c2sc3c(c12)CCN(Cc1ccccc1)C3	i
CC(C)C(=O)Nc1ccc(C(=O)O)cc1	0.3%
Cc1cccc(-n2c(-c3ccccc3F)n[nH]c2=S)c1	i
COc1ccc(C(=O)COc2ccc3c(C)c(C(C)C)c(=O)oc3c2)cc1	i
CCCC(C)c1nnc(NC(=O)CSCc2ccccc2)s1 (stereo unspecified)	i
CCCN1C(=O)c2ccc(C(=O)NCc3ccco3)cc2C1=O	8.2%
COc1ccc(N2CC(C(=O)Nc3cc(C)ccn3)CC2=O)cc1 (stereo unspecified)	i
CSc1cccc(NC(=O)c2ccccc2Cl)c1	i
C=CCOc1c(Br)cc(CNCC(C)O)cc1OCC (stereo unspecified)	i
Cc1cc(C(=O)NC23CC4CC(CC(C4)C2)C3)ccc1[N+](=O)[O-]	i
CCOC(=O)C(Cc1c[nH]c2ccccc12)NC(=O)COc1cc(C)ccc1C (stereo unspecified)	0.1%
Cc1ccc(C(C)(C)C)cc1S(N)(=O)=O	4.3%
N=C1C(c2nc3ccccc3c(=O)[nH]2)=C(O)CN1Cc1ccco1	i
O=C(NCCN1CCOCC1)c1cc2ncc(Br)cn2n1	i
O=C(NCc1ccco1)c1ccccc1NS(=O)(=O)c1cccs1	i
Clc1cccc(Cl)c1Cn1cnc2c(N3CCCCCC3)ncnc21	10.0%
Fc1ccc(C2=NN(c3ccccc3Cl)C(c3ccccc3F)C2)cc1 (stereo unspecified)	4.9%
CCOc1ccc(-n2c(C)ccc2C)cc1	i
Cc1ccc(-n2c(N)cc(=O)nc2SCC(=O)Nc2cccc(C(F)(F)F)c2)cc1	i
CCOc1ccccc1OC(=O)c1ccc(Cl)c(Cl)c1	29.7%
O=C(NCCOc1ccccc1Cl)c1cncc(Br)c1	i
O=C(Cc1ccc(Cl)cc1)Nc1ccccc1OC(F)F	i
O=C(CCc1ccccc1)NN1C(=O)C2C3C=CC(C3)C2C1=O (stereo unspecified)	i
Cc1ccc(C)c(NC(=O)c2oc3cc(C)c(C)cc3c2C)c1	i

The last 5 entries of the section above come first, to join the parts:
SMILES	Mtb H37Rv
CCOc1ccccc1OC(=O)c1ccc(Cl)c(Cl)c1	29.7%
O=C(NCCOc1ccccc1Cl)c1cncc(Br)c1	i
O=C(Cc1ccc(Cl)cc1)Nc1ccccc1OC(F)F	i
O=C(CCc1ccccc1)NN1C(=O)C2C3C=CC(C3)C2C1=O (stereo unspecified)	i
Cc1ccc(C)c(NC(=O)c2oc3cc(C)c(C)cc3c2C)c1	i
CC(=O)Nc1cc(C)c(N(C)S(=O)(=O)c2ccc(C)cc2)c(C)c1	i
COc1cccc(-c2nn(-c3ccccc3)cc2C(=O)N(C)C)c1	i
Cn1c(CCN2CCCCC2)nc2cc([N+](=O)[O-])ccc21	i
Cc1cc(Br)cc(C)c1NC(=O)c1ccc(C(C)C)cc1	37.1%
CS(=O)(=O)N(CC(=O)NCc1ccc(Cl)cc1Cl)c1ccc2c(c1)OCCO2	3.0%
CCOc1ccccc1N1C(=O)CC(N2CCC(C(N)=O)CC2)C1=O (stereo unspecified)	i
CCSc1nnc(NC(=O)CC(C)(C)C)s1	i
CCn1c(CNC(=O)c2ccccc2Cl)nnc1SCC(=O)Nc1ccc(Cl)cc1C	i
OCCCc1nc2ccccc2n1CCCCOc1ccccc1	i
CSc1ccccc1NC(=S)Nc1ccc(F)cc1F	i
CC(=O)Nc1ccc2nc(-c3cccn3C)[nH]c2c1	i
CCOC(=O)C1=C(C)NC(=O)NC1c1ccccc1OCc1c(F)cccc1Cl (stereo unspecified)	0.8%
Cc1ccc(SCc2nc(-c3cccnc3)no2)cc1	i
COc1ccc(C(=O)N2CCC(N3CCN(C)CC3)CC2)cc1	i
COCC(=O)NNC(=O)Nc1ccc(F)c(Cl)c1	i
COC(=O)c1c(C)c(=O)[nH]c2ccccc12	19.1%
Cc1cc(Cl)ccc1OCCCC(=O)NCc1cccs1	i
O=[N+]([O-])c1cc(Cl)ccc1NCc1ccccc1	i
CN(C)CCNC(=O)c1ccc2c(c1)OCO2	i
CCOc1ccc(NC(=O)c2ccccc2OCC)c([N+](=O)[O-])c1	?
Cc1ccc(NS(=O)(=O)c2cc(C(=O)N(C)C)ccc2C)cc1C	i
CCC1C(=O)C(C)(C)C(=O)OC1c1ccc(Cl)cc1 (stereo unspecified)	i
Nc1ncnc(Nc2ccc(F)c(Cl)c2)c1[N+](=O)[O-]	i
CCCCOc1ccc(S(=O)(=O)N2CCN(c3ccc(C)cc3C)CC2)cc1	i
Cc1cc(OCC(=O)Nc2ccc(NC(=O)C(C)C)cc2)ccc1Cl	i
SMILES	Mtb H37Rv
CCOC(=O)C(Sc1nnc(-c2ccc(Cl)cc2)n1-c1ccccc1)C(C)=O (stereo unspecified)	i
CC12CCC(C(=O)Oc3ccc(-c4ccc(C#N)cc4)cc3)(C(=O)C1=O)C2(C)C (stereo unspecified)	i
CCOC(=O)c1ccccc1NC(=O)COc1ccc(C(C)C)c(C)c1	i
CC(=O)Nc1ccc(C(=O)O)c(NC(C)=O)c1	i
Cc1cccc(C)c1OCC(=O)NC1CCCCC1NC(=O)COc1c(C)cccc1C (stereo unspecified)	i
O=C(Nc1ccc(F)cc1F)c1ccc(CSc2ccccc2)cc1	i
O=C(CSc1nc2ccccc2c(=O)n1C1CCCCC1)c1ccccc1	i
O=C(CC1NCCNC1=O)Nc1cccc(Cl)c1Cl (stereo unspecified)	i
CCOC(=O)Nc1ccc(S(=O)(=O)N2CCN(C)CC2)cc1	i
Cc1cc(C(C)(C)C)ccc1OCCN1CCNCC1	i
Cc1ccc(C)c(OCC(=O)Nc2sc3c(c2C(N)=O)CCCC3)c1C	i
CC(C)(C)CC(=O)NC1=NCCS1	4.1%
COc1ccc(NC(=O)CC2C(=O)N(c3ccc(F)cc3)C(=S)N2Cc2ccco2)cc1 (stereo unspecified)	i
COc1ccc(C(=O)NC(=S)Nc2ccc(Br)c(C)n2)cc1Cl	i
COC(=O)c1c(-c2ccc(F)cc2)csc1NC(=O)c1ccc(Cl)cc1Cl	i
CN(C)CCNC(=O)NCC12CC3CC(C1)CC(c1ccccc1)(C3)C2	i
CC(=O)Nc1cccc(-c2nnc(SCc3ccccc3C#N)n2C)c1	i
CCOC(=O)C1CCCN(C(=O)C2CCCO2)C1 (stereo unspecified)	i
N#Cc1c(NC(=O)c2cc(-c3cccnc3)nc3ccc(Cl)cc23)sc2c1CCC2	i
CCC(Sc1ccccn1)C(=O)Nc1nnc(C)s1 (stereo unspecified)	i
Cc1sc(NC(=O)c2cccs2)c(C(=O)O)c1C	i
O=C(O)c1cccc(COc2ccc(CO)cc2Br)c1	i
Cc1ccc(-c2nnc(NC(=O)C3CCCCC3)s2)cc1C	i
O=C(c1cccc2ccccc12)N1CCN(S(=O)(=O)c2ccc(Cl)cc2)CC1	i
CCOC(=O)CCc1c(C)c2ccc(OCc3cccc(Cl)c3)c(C)c2oc1=O	2.3%
SMILES	Mtb H37Rv
Cc1ccc(-n2nc3cc(Cl)c(NC(=S)NC(=O)c4cc5ccccc5o4)cc3n2)cc1	i
COC(=O)c1c(NC(=O)C2CC(=O)NN2Cc2ccccc2)sc2c1CCC2 (stereo unspecified)	3.9%
CCC(Sc1nc2ccccc2c(=O)[nH]1)C(=O)O (stereo unspecified)	i
CCCc1cc(C(=O)OC)c(NC(=O)c2c(CC)noc2C)s1	i
CCC(C(=O)Nc1ccc(Cl)c(C(F)(F)F)c1)c1ccccc1 (stereo unspecified)	i
Cc1cc(C(=O)Nc2ccc3c(c2)CCC3)no1	0.2%
COc1ccc(N2CCN(C(=O)C3CCN(C(=O)c4ccc([N+](=O)[O-])cc4)CC3)CC2)cc1	i
COc1ccc(-c2cc(C(=O)N3CCCCCC3)c3ccccc3n2)cc1OC	i
Cc1cc(C)c(NC(=O)COc2ccccc2C(C)C)c(C)c1	6.6%
O=C(COc1ccc([N+](=O)[O-])cc1)Oc1ccc(Br)cc1Cl	3.4%
COc1ccc(S(=O)(=O)N2CCN(C(=O)c3ccccc3OC)CC2)cc1	i
CCOC(=O)C(=O)Nc1ccc(S(=O)(=O)NC(C)(C)C)cc1	i
Cc1ccc(CN(c2ccc(C(=O)NCC3CCCO3)cc2)S(C)(=O)=O)cc1 (stereo unspecified)	i
Cc1cccc(OCC(O)Cn2ccnc2C)c1 (stereo unspecified)	48.8%
CCCCSc1ccc(NC(=O)c2cncc(Br)c2)cc1	i
CN(c1cccc(NS(C)(=O)=O)c1)S(C)(=O)=O	4.8%
CN(C)CC(=O)Nc1ccc(Oc2ccc(Cl)cc2)cc1	i
N#Cc1ccc(C2C3=C(CCCC3=O)NC3=C2C(=O)CCC3)cc1	2.0%
CCC(=O)Oc1ccc(C(=O)Nc2ccc(-c3nc4cc(C)ccc4o3)cc2)cc1	i
CCOc1ccc(N(CC(=O)Nc2ccc(F)cc2F)S(=O)(=O)c2ccc(C)cc2)cc1	3.9%
Cc1ccc(N2CCN(S(=O)(=O)c3ccc(Cl)c(C)c3Cl)CC2)cc1C	i
COc1ccc(S(=O)(=O)Nc2cccc(C)n2)c2ccccc12	i
Cc1cccc(OC(C)C(=O)Nc2ccccc2F)c1C (stereo unspecified)	i
COc1ccc(S(=O)(=O)N(C)CC(=O)NC2CCCC2)cc1OC	i
Cc1ccc(NCC(O)Cn2c(C)c(C)c3ccccc32)cc1 (stereo unspecified)	?

3 entries from above, ordered by count of non-hydrogen atoms, rising.
SMILES	Mtb H37Rv
CC(=O)Nc1ccc2nc(-c3cccn3C)[nH]c2c1	i
CCOC(=O)Nc1ccc(S(=O)(=O)N2CCN(C)CC2)cc1	i
CCOC(=O)C(Sc1nnc(-c2ccc(Cl)cc2)n1-c1ccccc1)C(C)=O (stereo unspecified)	i

Quoted at random: 5 entries already listed.
SMILES	Mtb H37Rv
CCC(C(=O)Nc1ccc(Cl)c(C(F)(F)F)c1)c1ccccc1 (stereo unspecified)	i
COc1ccc(S(=O)(=O)N2CCN(C(=O)c3ccccc3OC)CC2)cc1	i
Cc1cc(C(=O)Nc2ccc3c(c2)CCC3)no1	0.2%
Cc1ccc(NCC(O)Cn2c(C)c(C)c3ccccc32)cc1 (stereo unspecified)	?
Cc1cc(C)c(NC(=O)COc2ccccc2C(C)C)c(C)c1	6.6%

Next section
SMILES	Mtb H37Rv
N#Cc1c(NC(=O)c2c(F)cccc2F)sc2c1CCCCC2	i
COc1ccc(Cl)cc1NC(=S)Nc1cnn(Cc2ccc(Cl)cc2Cl)c1	i
Cc1noc(NS(=O)(=O)c2ccc(NC(=O)CSc3nnc(-c4ccccc4)c(-c4ccccc4)n3)cc2)c1C	i
CCOc1cc(-c2ccc(OC)cc2)[o+]c2c1ccc1ccccc12	8.4%
COc1ccc(NC(=S)NNC(=O)c2cccc(OC(C)C)c2)c(OC)c1	i
Cc1ccccc1OC(=O)COc1cccc(Br)c1	i
COc1c(S(=O)(=O)NCCCN2CCOCC2)ccc(Cl)c1Cl	i
N/C(=N\c1nc(-c2cccs2)cc(C(F)(F)F)n1)Nc1cccc2ccccc12	1.8%
COc1ccc(-c2nnc(SCC(=O)Nc3nc4ccccc4s3)n2C)cc1	i
COC(=O)C1=C(C)n2cnnc2NC1c1cccc(O)c1Cl (stereo unspecified)	i
COc1ccc(C)cc1NS(=O)(=O)c1ccc2ccccc2c1	i
CCN1CCN(c2ccc(NC(=O)Cc3ccccc3)cc2)CC1	i
O=S(=O)(O)c1nc2ccccc2n1Cc1ccccc1F	i
Cc1ccc(S(=O)(=O)Nc2ccc(NC(=O)c3cccnc3)cc2)cc1	i
O=C(c1nn2c(C(F)(F)F)cc(-c3ccco3)nc2c1Cl)N1CCCCCC1	i
Cc1ccc(CSc2nnc(-c3cccnc3)n2C)cc1	0.0%

Given bar-delimited: part of the list above
canonical_smiles | Mtb H37Rv
CCOc1cc(-c2ccc(OC)cc2)[o+]c2c1ccc1ccccc12 | 8.4%
COc1ccc(NC(=S)NNC(=O)c2cccc(OC(C)C)c2)c(OC)c1 | i
